# Source: PubChem BioAssay
# AID504770 – growth inhibitors of E. coli YBA685 in a screen for V. cholerae RctB (chromosome II replication) inhibitors; 0.27% of 130,000 active; AID 504770; E. coli YBA685 rctB-dependent plasmid, OD600 growth, 3 h; stronger effect = lower value; z-score (concentration not given with the values);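 active = z-score under -2 on both plates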;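 note: wells of about 30 µL received 100 nL stock; score is relative to mean and SD of the test wells; the first replicate is given; strong numbers were not always called active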
# Ba CapD inh – CapD enzyme inhibition; purified CapD enzyme, fluorescence intensity read-out; stronger effect = lower value; some hits fall short of the stated cut; z-score (no concentration beside the values); 0.23% of 140,000 active;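 active = z-score under -4 in either of two replicates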;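 note: stock transfer was 100 nL into about 40 µL; score is relative to mean and spread of the plate; one replicate is shown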
# The depositor's hits bear a star; nt = no result given; & = joins results of further samples.
SMILES,AID504770,Ba CapD inh
CCCN1c2ccccc2NC1NC(=O)CCN(c1ccc(OC)cc1)S(=O)(=O)c1ccc(C)cc1 (centres undefined),-0.05,nt
N#CC1(N2CCCCC2)CCCCC1,-0.6,-0.27
COc1cc(/C=C2\C(=O)NC(=O)N(c3ccc(Br)cc3)C2=O)ccc1O,nt,-0.75
Cc1cc(C)nc(N(C(=O)C2CC2)c2c(C)cccc2C)n1,nt,0.14
COc1ccc(CNCC2(O)CCOC(C)(C)C2)cc1 (centres undefined),-0.45,-0.06
CC1CC(C)CN(C(=O)C2CCC(Cn3c(=S)[nH]c4ccccc4c3=O)CC2)C1 (centres undefined),nt,0.84
C/C(N)=C(/C#N)C(=O)CSc1nc2nc(C)cc(C)n2n1,0.3,nt
Cn1cnc(S(=O)(=O)NC2CCN(Cc3c(F)cccc3Cl)CC2)c1,0,0.88
O=C1COc2ccccc2N1C(=O)c1ccc(Cl)cc1,-0.5,-4.1*
Nc1nccc(-c2nn(-c3ccc(Cl)cc3)ccc2=O)n1,-0.85,-2.9
Cc1ccc(CN2COc3c(Cl)cc4c(C)c(C)c(=O)oc4c3C2)cc1,1.7,53
COC(=O)C1=C(NC(=O)c2cccc(Cl)c2)CCS1,3.2,-1.3
CC(=O)N1c2ccccc2NC2=C(C(=O)CC(c3cccs3)C2)C1c1ccc(C(F)(F)F)cc1 (centres undefined),nt,8.4
CN(C)C(=S)SCC#N,-0.55,nt
C=CCNC(=O)c1nc(-c2ccccc2)oc1C(F)(F)F,nt,-0.09
Cc1c(C#N)c(N)c(C(=O)c2ccccc2)n1-c1ccccc1,-0.9,-0.43
COc1ccc(N2C(=O)CC(c3ccccc3)C3=C2CC(C)(C)CC3=O)cc1 (centres undefined),nt,0.035
O=C(Nc1ccc(S(=O)(=O)N2CCCCC2c2cccnc2)cc1)c1ccc2c(c1)OCO2 (centres undefined),0.55,nt
O=C(O)c1cc(=O)cc(C(=O)O)o1,-2.6,0.16
N#CC(C(=O)c1ccc(-c2nc3ccccc3s2)s1)c1nc2ccccc2s1 (centres undefined),0.05,nt
O=C(O)CCN1C(=O)C(=O)/C(=C(/O)c2ccccc2)C1c1cccc(F)c1 (centres undefined),nt,-0.18
CCN(Cc1ccccc1)c1ccc(C2C3=C(CCCC3=O)Nc3[nH]c(=O)[nH]c(=O)c32)cc1 (centres undefined),0.15,-3.2
CCOC(=O)C1CCN(CC(=O)Nc2ccc(C(F)(F)F)cc2Cl)CC1,-0.8,0.65
CCN(CC)CCCNC(=O)OCC#Cc1ccccc1,nt,-0.37
O=C1CCCN1CCCNS(=O)(=O)c1cccc(Br)c1,-0.95,nt
O=C(OC(C(=O)NC1CCCCC1)c1ccccc1)c1ccco1 (centres undefined),1.7,nt
Cc1ccc(C(=O)Oc2cccc(C3C4=C(Nc5c3c(=O)[nH]c(=O)n5C)c3ccccc3C4=O)c2)cc1 (centres undefined),nt,0.31
Cc1c(C(=O)Nc2ccccc2)sc(N)c1C(N)=O,nt,1.4
N#CC1=C(N)Oc2n[nH]c(-c3ccc(Cl)s3)c2C12C(=O)Nc1ccccc12 (centres undefined),nt,-0.3
O=C(c1ccccc1O)N1N=C(C(F)(F)F)CC1(O)c1ccc(F)cc1 (centres undefined),nt,0.04

# Molecules listed so far with a thiophene ring, fused or not (4):
SMILES,AID504770,Ba CapD inh
CC(=O)N1c2ccccc2NC2=C(C(=O)CC(c3cccs3)C2)C1c1ccc(C(F)(F)F)cc1 (centres undefined),nt,8.4
N#CC(C(=O)c1ccc(-c2nc3ccccc3s2)s1)c1nc2ccccc2s1 (centres undefined),0.05,nt
Cc1c(C(=O)Nc2ccccc2)sc(N)c1C(N)=O,nt,1.4
N#CC1=C(N)Oc2n[nH]c(-c3ccc(Cl)s3)c2C12C(=O)Nc1ccccc12 (centres undefined),nt,-0.3

# Next records
SMILES,AID504770,Ba CapD inh
Cc1c(C)c(C)c(CSC(N)=Nc2ccccc2)c(C)c1C,nt,0.025
CCCC(=O)c1cc2cc(Cl)ccc2oc1=O,0.1,0.84
CN1CCC(NC(=O)c2cccs2)CC1,0.25,-0.1
COc1ccc(S(=O)(=O)NCC2CCCO2)cc1C(=O)O (centres undefined),-0.4,0.065
C=CCn1nnnc1NCc1ccccc1,2,nt
Cc1ccc(N2C(=O)CC2(C(=O)NC2CCCCC2)c2ccccc2F)cc1 (centres undefined),1.3,19
Cc1cc(CNCC2CCCCC2)c(C)n1-c1nccs1,-0.25,nt
COc1ccc(Cl)cc1C(=O)NCCc1cc2ccc(C)cc2[nH]c1=O,-0.45,0.96
CCC1CCCCN1C(=O)COC(=O)c1ccc(NC(C)=O)cc1 (centres undefined),0.8,0.36
CCCc1c(C(=O)Nc2ncn[nH]2)cnn1-c1ccccc1,0.9,0.69
CCN(c1ccccc1)S(=O)(=O)c1ccc2c(c1)C(C)(C)C(=O)N2C,0.35,-0.4
Cc1cc2c(cc1C)C(c1ccc(F)c(Br)c1)CC(=O)N2 (centres undefined),nt,-0.43
ONC=Nc1nonc1-c1cccnc1,-0.35,10
CC(=O)N1CCc2c(sc(NC(=O)C(C)C)c2C#N)C1,0.55,-0.29
O=C(O)CCN1CCn2c3c(c4cc(C5CCCCC5)ccc42)CCCC31 (centres undefined),-0.55,5
CC(=O)Nc1nnc(CCCCn2c(-c3nonc3NC(C)=O)nc3ccccc32)s1,0,-0.28
CCn1c(=O)c(=O)[nH]c2cc(C(=O)NCc3ccc4c(c3)OCO4)ccc21,1,nt
CCc1c(C)c(C#N)c2nc3ccccc3n2c1N1CCN(CCO)CC1,0.05,-0.33
CCCc1cc(=O)[nH]c(Nc2ccccc2)n1,0.3,-0.65
CCOC(=O)c1cc(C#N)c(SCC(=O)OCc2ccc(C#N)cc2)nc1C,-0.55,nt
COc1ccc(CCNC(=O)c2ccc3nc(-c4ccccc4NC(C)=O)c(=O)[nH]c3c2)c(OC)c1,-0.1,4
NC(=O)CSC1=NN2CCCC(=O)N=C2S1,-1.4,-0.51
Cc1c(C(=O)Nc2ccc3c(c2)OCO3)sc2ncnc(N3CCc4ccccc4C3)c12,nt,-0.01
CCOC(=O)c1cnc(-c2ccccc2)nc1Sc1cccc(C)c1,nt,0.4
CNCC(O)c1ccc(O)c(OC)c1 (centres undefined),nt,-0.59
CC(C)COC(=O)CCn1[nH]c(=O)c2ccccc2c1=O,0.6,-0.29
CCOC(=O)c1c(CN2CCOCC2)n(C2CCCCC2)c2cc(Br)c(O)cc12,nt,-0.25
COC(=O)Cc1nc(N2CCN(c3cccc(Cl)c3)CC2)c2c(C)c(C)sc2n1,nt,-0.56
CC1CCN(C(=O)CSc2nnc3c(n2)[nH]c2ccccc23)C(C)C1 (centres undefined),nt,-0.24
C[C@@H]1O[C@@H](O[C@H]2[C@H](Oc3cc(O)c4c(c3)O[C@H](c3ccc(O)cc3)CC4=O)O[C@H](CO)[C@@H](O)[C@@H]2O)[C@H](O)[C@H](O)[C@H]1O,nt,-2.5&-0.44

# Brought forward from above: 6 compounds, then new ones.
SMILES,AID504770,Ba CapD inh
CNCC(O)c1ccc(O)c(OC)c1 (centres undefined),nt,-0.59
CC(C)COC(=O)CCn1[nH]c(=O)c2ccccc2c1=O,0.6,-0.29
CCOC(=O)c1c(CN2CCOCC2)n(C2CCCCC2)c2cc(Br)c(O)cc12,nt,-0.25
COC(=O)Cc1nc(N2CCN(c3cccc(Cl)c3)CC2)c2c(C)c(C)sc2n1,nt,-0.56
CC1CCN(C(=O)CSc2nnc3c(n2)[nH]c2ccccc23)C(C)C1 (centres undefined),nt,-0.24
C[C@@H]1O[C@@H](O[C@H]2[C@H](Oc3cc(O)c4c(c3)O[C@H](c3ccc(O)cc3)CC4=O)O[C@H](CO)[C@@H](O)[C@@H]2O)[C@H](O)[C@H](O)[C@H]1O,nt,-2.5&-0.44
O=C(Nc1ccc(Cl)cc1)c1nccnc1CO,-0.2,4.9
Cc1ccc2nc(COC(=O)c3ccc4c(c3)OCCO4)cc(=O)n2c1,0.2,nt
CCOC(=O)Cc1nc(C)cs1,0.1,0.42
O=C(CSc1nc2ccccc2c(=O)n1CC1CCC(C(=O)NCc2ccccc2Cl)CC1)NCC1CCCO1 (centres undefined),nt,-0.3
C=CCOc1cccc(C(=O)NCC)c1,-0.3,1.1
COC(=O)c1nn(-c2ccc(OC)cc2)c(=O)cc1Sc1ccc(C)cc1,nt,0.17
Cc1[nH]c(=S)[nH]c(=O)c1Cc1ccccc1,2.2&-0.2,-0.69&0.29
O=C(Nc1cc(Cl)cc(Cl)c1)C(Sc1ncccn1)c1ccccc1 (centres undefined),-0.2,0.15
Cc1ccc(CNC(=O)N2CCn3cccc3C2C)cc1 (centres undefined),0.55,0.25
COc1cc(C2NC(=O)NC(C)=C2C(=O)OCc2ccc(C)cc2)cc(OC)c1O (centres undefined),nt,-0.15
Cn1c(C(=O)N2CCc3ccccc3C2)cc2cc(S(C)(=O)=O)ccc21,nt,-0.05
CCOC(=O)C(C)Oc1ccc(NC(=O)C(Cl)Cl)cc1 (centres undefined),nt,0.42
COc1ccc(Cl)cc1N1C(=O)C2C(c3ccccc3F)NN(C(=O)c3ccc(C)cc3)C2C1=O (centres undefined),-1.2,-0.81
CC(C)NC(=O)C1CCN(Cc2cnn(-c3ccccc3)c2-n2cccc2)CC1,-0.6,-0.22
O=C(Cn1cnc2sccc2c1=O)NC1CCS(=O)(=O)C1 (centres undefined),0.9,nt
Cc1cc(=O)nc2c3ccccc3n(CC(=O)NC3CCCc4ccccc43)n12 (centres undefined),-0.1,-0.43
CC(C)c1nn2c(=O)cc(COc3cccc(NS(C)(=O)=O)c3)nc2s1,-0.45,0.41
c1ccc(CCN2CCc3nc4ncccc4cc3C2)cc1,nt,19
CCC(Cn1nnn(-c2ccccc2)c1=O)NC(=O)Cc1nn(CC)c(=O)c2ccccc12 (centres undefined),-0.35,0.23
COc1ccc(N2CCN(C(=O)OCC3CCCCN3Cc3cccnc3)CC2C)cc1 (centres undefined),nt,0.12
O=C(C(Sc1ccccc1)c1ccccc1)n1cnc2ccccc21 (centres undefined),2,0.15
O=C(OCCN1C(=O)c2cccc3c(N4CCOCC4)ccc(c23)C1=O)c1ccc(S(=O)(=O)N2CCCCC2)cc1,nt,0.23
O=C(Nc1ccc(-n2nncc2-c2ccccc2)cc1)c1ccco1,-0.7,3.1
CC(=O)Nc1scc(-c2ccccc2)c1C(=O)N1CCOCC1,0.3,-0.36
O=C(Nc1ccc2ccccc2c1)N1C[C@H]2C[C@@H](C1)c1cccc(=O)n1C2,nt,-0.3
Cc1cccc(N2C(=O)SC(C)C2=O)c1 (centres undefined),-1.3,-0.33
CCn1cc(C2N3CC4(C)CN2CC(C)(C3)C4O)c2ccccc21 (centres undefined),0.55,0.53
Cc1c(C(=O)OC2CCCCC2)sc2ncn(CC(N)=O)c(=O)c12,-0.45,nt
O=C(CSc1nnnn1C1CC1)Nc1ccc2c(c1)CCC2,-0.25,nt
Cc1ccc(NS(=O)(=O)c2c(C)noc2C)cc1,-1.3,nt

# Entries shown so far that have a COOH group:
SMILES,AID504770,Ba CapD inh
O=C(O)c1cc(=O)cc(C(=O)O)o1,-2.6,0.16
O=C(O)CCN1C(=O)C(=O)/C(=C(/O)c2ccccc2)C1c1cccc(F)c1 (centres undefined),nt,-0.18
COc1ccc(S(=O)(=O)NCC2CCCO2)cc1C(=O)O (centres undefined),-0.4,0.065
O=C(O)CCN1CCn2c3c(c4cc(C5CCCCC5)ccc42)CCCC31 (centres undefined),-0.55,5

# Next section
SMILES,AID504770,Ba CapD inh
O=C(c1cc2ccccc2oc1=O)N1CCCCC1,-3.9,0.32
O=C(O)COCC(=O)Nc1nnc(C(F)(F)F)s1,0.9,0.34
COc1cc2c(cc1OC)C(c1ccc(Cl)cc1)OC1=C2C(=O)c2ccccc21 (centres undefined),nt,-0.24
CCN(CC)C(=O)c1cccnc1Oc1ccc(Cl)cc1,-0.45,-0.52
CSc1ccc(C(=O)NC(=O)Nc2cc(C)on2)s1,0.25,33
CN(C)c1ccc(C2OCCN2C(=S)Nc2ccccc2F)cc1 (centres undefined),-0.1,-1.2
Cc1cc(N2CC(=O)N(CCc3ccccc3)C(=O)C2)nc(-n2nc(C)cc2C)n1,0.35,nt
COc1ccccc1Cn1c(=S)[nH]c2cc(C(=O)N3CCN(c4ccc(F)cc4)CC3)ccc2c1=O,nt,-0.42
O=C(Cn1c(=O)n(Cc2cccs2)c(=O)c2ccc(Cl)cc21)NCC1CCCO1 (centres undefined),1.4,-0.57
COc1ccccc1NC(=O)Nc1nc(CC(=O)N2CCCC2)cs1,-1.1,nt
CCOC(=O)C1(c2ccccc2)CCN(CCC(=O)Nc2ccc(C(=O)OC)cc2)CC1,-0.3,0.22
O=C(c1ccc(Cl)cc1)C1CN(c2ccccc2)CC1c1ccccc1F (centres undefined),nt,-0.37
CN1CCN(S(=O)(=O)c2ccc3c(c2)C(=NO)c2cc(S(=O)(=O)N4CCN(C)CC4)ccc2-3)CC1,-0.3,1.1
Cn1cnnc1SCc1nc2ccccn2c1Br,-0.85,nt
CCOC(=O)c1c(NC(=O)CN2CCC3(CC2)OCCO3)sc(C)c1C,2,0.76
CCOc1cnn(C)c(=O)c1OCC,0.2,0.4
COc1ccc(N2CCN(c3ncnc4sc(C(=O)NCc5cccnc5)c(C)c34)CC2)cc1,nt,-0.73
COc1nc(-c2ccccc2)cc(C(F)(F)F)n1,-0.75,0.12
CCOC(=O)n1c(=O)oc2ccccc21,0,0.02
C=CCn1c(SCC(=O)Nc2ccccc2Cl)nc2cc(C(=O)NCc3ccco3)ccc2c1=O,nt,0.73
O=C(NC1(C(F)(F)F)Oc2ccccc2O1)N1CCCc2ccccc21,nt,-2.5
O=C(Cn1cnc2c(cnn2CCO)c1=O)N1CCCc2ccccc21,-0.6,nt
Cc1occc1C(=O)Nc1cc(C(C)(C)C)on1,0,0.21
CC(C)(CO)Nc1c[nH]c(=O)[nH]c1=O,-1,0.54
COc1ccccc1C(=O)ON1C(=O)CCC1=O,-1.1,-5.5*
O=C(CCS(=O)(=O)c1cccc2nsnc12)NC1CCCCC1,nt,-0.15
COc1cc(C(c2c(C)[nH]n(-c3ccccc3)c2=O)c2c(C)[nH]n(-c3ccccc3)c2=O)ccc1OCc1ccccc1,nt,-0.72
NS(=O)(=O)c1cccc(C(=O)NCc2ccccc2)c1,-1.1,-0.17
